# Screening data: PubChem, National Center for Advancing Translational Sciences (NCATS)
# YjeE inh: inhibitors of E. coli YjeE (TsaE); P0AF67; purified YjeE, fluorescence polarisation of a bound ADP probe; AID 605; Potency, µM; hit rate 0.05% among 71,000; active = well fitted falling curve; inconclusive = weaker or top-dose-only fall, or a rising curve; inactive = flat or poorly fitted curve;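 further: top concentration of the series not given in the record; excess ADP was the control for the full effect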
#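 Purified YjeE (10 uM) with BODIPY Texas Red-labeled ADP probe (2 uM); compounds pin-transferred, 15 min at room temperature. Binding inhibition read as decreased fluorescence polarization; ADP titration as control.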
# PK Bst: alters activity of Bacillus stearothermophilus pyruvate kinase | partly purified Bacillus stearothermophilus pyruvate kinase, luminescence ATP production; ribose 5-phosphate activator present at AC10 | Potency, µM | hit rate 1.2% among 51,000; in the data active means potency below about 11 µM; inconclusive means mostly about 12 µM to 25 µM; inactive means weaker than that;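 the screen sought inhibitors and activators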;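 further: potency means the concentration at half of the fitted maximal effect; scaled between full activation by ribose 5 phosphate and full inhibition by luteolin; about four in five hits inhibit and the cells do not say which; series up to 57 µM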
# * hit, by the source's call; i = inactive; ? = inconclusive; . = no result given.
SMILES,YjeE inh,PK Bst
CC(=O)Nc1cccc(NC(=O)CSc2nnnn2Cc2ccccc2)c1,i,>57
CCS(=O)(=O)n1nc(-c2ccc(C)cc2)nc1N,i,>57
CN(C)CCNC(=O)c1ccc(CS(=O)(=O)c2ccc(Br)cc2)o1,i,.
OCCNCCO,i,.
CCOC(=O)c1nn(-c2ccc3c(c2)CCN3C(C)=O)cc1O,i,9.9*
O=C(O)C/C(=C\c1ccccc1)C(=O)O,i,.
Cc1nn(-c2cc(N3CCCCC3)ccc2N)c(=O)c2ccccc12,i,>57
CCc1nnc(NC(=O)CCC(=O)N2CCN(Cc3ccccc3)CC2)s1,i,.
COC(=O)[C@@]1(Cc2ccc(OC)cc2)[C@H]2c3cc(C(=O)N4CCCC4)n(C[C@H](O)CO)c3C[C@H]2CN1C(=O)c1ccccc1,i,.
c1cnc(N2CCN(c3nc4ccccc4n4cnnc34)CC2)nc1,i,i
COc1cccc(NC(=O)N(Cc2ccco2)C(C)c2cccs2)c1 (centres undefined),i,>57
Cc1cc(=O)[nH]c(SCC(=O)c2ccccc2)c1C#N,.,>26
CS(=O)(=O)N(CC(=O)NCc1ccco1)Cc1ccc(Cl)cc1,i,>57
CCNc1nc(N)nc(Oc2ccc(C(=O)OC)cc2)n1,i,>57
O=C(CCn1[nH]c(=O)c2ccccc2c1=O)OC1CCCCC1,i,>57
O=C(CSc1nnc(Cc2cccs2)n1-c1ccccc1)NCc1ccc2c(c1)OCO2,i,>57
O=C(Nc1ccc(S(=O)(=O)NCc2ccco2)cc1)c1ccc2ccccc2n1,i,>57
N#Cc1ccc(OCc2nnc(SCC(=O)N3CCCc4ccccc43)n2-c2ccccc2)cc1,i,>57
CCOC(=O)c1cc2c(=O)n3ccccc3nc2n(CCOC)c1=NC(=O)c1ccncc1,i,>57
COc1ccc(C2(C(=O)Nc3cc(C)on3)CCOCC2)cc1,i,>57
O=C(CSc1nc2ccccc2o1)Nc1ccc(N2CCOCC2)c(Cl)c1,i,>57
CN1C(=O)CC(N2CCN(C(c3ccccc3)c3ccccc3)CC2)C1=O (centres undefined),i,>57
CCOC(=O)N1CCN(Cc2nc3c(c(=O)n(C)c(=O)n3C)n2Cc2ccccc2C)CC1,i,>57
O=C(CNC(=O)c1cccs1)NC1=NCCS1,i,>57
Nc1cc(=O)[nH]c(=O)n1Cc1ccco1,i,>57

# Some of these compounds in order of SMILES length, ascending:
SMILES,YjeE inh,PK Bst
OCCNCCO,i,.
O=C(CCn1[nH]c(=O)c2ccccc2c1=O)OC1CCCCC1,i,>57
CCc1nnc(NC(=O)CCC(=O)N2CCN(Cc3ccccc3)CC2)s1,i,.
CCOC(=O)N1CCN(Cc2nc3c(c(=O)n(C)c(=O)n3C)n2Cc2ccccc2C)CC1,i,>57

# (more compounds)
SMILES,YjeE inh,PK Bst
CC1CN(C2CCCCC2)c2nc3c(c(=O)n(C)c(=O)n3C)n2C1 (centres undefined),i,>57
NS(=O)(=O)c1ccc(NCc2c(F)cccc2Cl)cc1,i,>57
Cc1ccc(C#N)cc1,i,.
Cc1cc(N2C(=O)C3C4C=CC(C4)C3C2=O)ccc1Br (centres undefined),i,>57
O=C(CN(CCc1ccccc1)C(=O)CNS(=O)(=O)c1ccccc1)NCC1CCCO1 (centres undefined),i,>57
c1ccc(CCN2CCN(c3ncnc4c3cnn4-c3ccccc3)CC2)cc1,i,>57
c1nc(N2CCOCC2)c2[nH]cnc2n1,i,>57
Cc1nnc(SCCn2c(N3CCN(Cc4ccccc4)CC3)nc3c2c(=O)[nH]c(=O)n3C)s1,i,>57
CCNS(=O)(=O)c1c(C)cc(N2CCCC2=O)cc1C,i,>57
CCCCN(C)CCCNC(=O)c1cccc(N2CCCC2=O)c1,i,>57
CC1(C)NC(=O)N(CC(O)COc2ccccc2-c2ccccc2)C1=O (centres undefined),i,>57
CCOC(=O)CNC(=O)CSc1nnc(COc2ccc(Cl)cc2)n1CC,i,>57
COc1cc(-c2nc(S(=O)(=O)c3ccc(C)cc3)c(N3CCOCC3)o2)cc(OC)c1OC,i,?
CC1(C)Cc2c(sc3c4nnnn4c4nnnn4c23)CO1,.,>26
O=C1C[C@H](c2ccccc2)Oc2cc(O)cc(O)c21,i,.
O=C(Nc1cc(C(F)(F)F)ccc1N1CCCCC1)c1ccco1,i,>57
Cc1cc(C)nc(N2CCN(c3ncnc4c3oc3ccccc34)CC2)n1,i,>57
Cn1c(C(=O)N2CCN(c3ccc(Cl)cc3)CC2)cc2c(=O)n(C)c3ccccc3c21,i,.
COc1ccc2[nH]cc(CCNc3ncncc3-c3ccc(N(C)C)cc3)c2c1,i,.
C[C@H](NC[C@H](O)CP(=O)(O)Cc1ccccc1)c1ccc(Cl)c(Cl)c1,i,.
Cc1cc(C(=O)Cn2nnc3ccccc3c2=O)c(C)n1Cc1cccs1,i,5.7*
Cc1cccc(-n2ccnc2SCC(=O)Nc2nccs2)c1C,i,?
O=C(NCC1COc2ccccc2O1)c1ccccc1 (centres undefined),i,>57
O=C(c1cccc(F)c1)N1CCC2(CCCN(c3ccccn3)C2)CC1,i,.
Cc1ccc(C)c(SCC(=O)OCC(=O)c2ccco2)c1,i,?

# In the list so far, 6 contain an NH in an aromatic ring.
SMILES,YjeE inh,PK Bst
Cc1cc(=O)[nH]c(SCC(=O)c2ccccc2)c1C#N,.,>26
O=C(CCn1[nH]c(=O)c2ccccc2c1=O)OC1CCCCC1,i,>57
Nc1cc(=O)[nH]c(=O)n1Cc1ccco1,i,>57
c1nc(N2CCOCC2)c2[nH]cnc2n1,i,>57
Cc1nnc(SCCn2c(N3CCN(Cc4ccccc4)CC3)nc3c2c(=O)[nH]c(=O)n3C)s1,i,>57
COc1ccc2[nH]cc(CCNc3ncncc3-c3ccc(N(C)C)cc3)c2c1,i,.

# Other records follow:
SMILES,YjeE inh,PK Bst
Nc1ncnc2nc(-c3ccc(C[P+](c4ccccc4)(c4ccccc4)c4ccccc4)cc3)[nH]c12,i,.
COc1ccc(CNc2oc(C)nc2C#N)cc1,i,.
CCn1c(SCC(=O)NCc2ccc3c(c2)OCO3)nnc1-c1c[nH]c2ccccc12,i,>57
COC(=O)Cn1c(=NC(=O)CSCC(=O)Nc2cc(C)on2)sc2ccccc21,i,.
Cn1c(=N)n(CC(O)c2ccco2)c2ccccc21 (centres undefined),i,>57
COCCCN1C(=O)C(O)=C(C(C)=O)C1c1ccccn1 (centres undefined),i,>57
CC(C)(NCc1ccccc1Cl)C(=O)O,i,>57
C=CCNc1nc(-c2ccccc2)nc(-n2ccnc2)n1,i,.
CCOC(=O)N1CCN(S(=O)(=O)c2ccc(OC)c(Cl)c2Cl)CC1,i,>57
O=C(Nc1cccc2ccccc12)N1CCN(c2ccccc2)CC1,i,>57
O=C(Cn1cc(C(F)(F)F)ccc1=O)N1CCN(S(=O)(=O)c2ccccc2)CC1,i,>57
COc1ccc(C(=O)NC2CCCCC2)cc1S(=O)(=O)N1CCCC1,i,>57
O=c1oc(-c2cccs2)nc2sc3c(c12)CCCCC3,i,.
O=C(C1=C(O)C(=O)N(CCN2CCOCC2)C1c1cccs1)c1cc2ccccc2o1 (centres undefined),i,>57
COCCNC(=O)C(c1ccncc1)N(C(=O)Cn1nnc2ccccc21)c1ccc(OC)cc1 (centres undefined),i,>57
COc1ccc(-c2nc(C(N)=O)c3[nH]c(=O)n(-c4cccc(C)c4)c3n2)c(OC)c1,i,.
CC(=O)NC(CCS(C)(=O)=O)C(=O)Nc1cccc(Cl)c1Cl (centres undefined),i,.
Fc1ccccc1N1CCN(C2CCN(Cc3c[nH]c4ccccc34)CC2)CC1,i,.
Cc1sc2ncnc(OCC(=O)N3CCN(S(=O)(=O)c4ccccc4)CC3)c2c1C,i,>57
CC(c1nnc(Sc2nnnn2-c2ccccc2)n1-c1ccc(F)cc1)N(C)C (centres undefined),i,>57
CC(O)c1nc2ccccc2n1C/C=C/c1ccccc1 (centres undefined),i,>57
O=C(O)c1cccc(Nc2ncnc3ccccc23)c1,i,.
CC(=O)C1=C(O)C(=O)N(CCc2c[nH]c3ccccc23)C1c1cccc(O)c1 (centres undefined),i,>57
OCCN1CN=C(Nc2nc3ccccc3s2)NC1,i,>57
CC1CCCN(S(=O)(=O)c2cccc(-c3cn4cccnc4n3)c2)C1 (centres undefined),i,>57

# One compound at a time, as listed above.
# Entry for CCn1c(SCC(=O)NCc2ccc3c(c2)OCO3)nnc1-c1c[nH]c2ccccc12 → YjeE inh: i; PK Bst: >57
# Entry for Cn1c(=N)n(CC(O)c2ccco2)c2ccccc21 (centres undefined) → YjeE inh: i; PK Bst: >57

# Further structures
SMILES,YjeE inh,PK Bst
CON(C)c1nc(OCCNC(=O)COc2ccc(Cl)cc2C)nc(N(C)C)n1,i,.
Cc1ccc(-c2noc(C3CCCN(C(=O)c4c(F)cccc4F)C3)n2)cc1 (centres undefined),i,>57
O=C(Cn1cc2c(n1)CCCC2)N1CCOCC1,i,.
O=S(=O)(Nc1ncnc2c1oc1ccccc12)c1ccc(Cl)s1,i,>57
O=C1c2ccccc2C(=O)N1CCCCSc1nnc2ccccn12,i,>57
Cc1cc(N2C(=O)C(=O)/C(=C(/O)c3ccc(F)cc3)C2c2cccc(Br)c2)no1 (centres undefined),.,>26
COC(=O)c1ccc2nc(C(F)(F)F)[nH]c2c1,i,>57
COS(C)(=O)=O,i,.
COc1ccc(NC(=O)CSc2nnc(-c3cccs3)n2C)cc1OC,i,>57
Cc1cc(NC(=O)C2CCCCC2)nc2c1c(=O)oc1ccccc12,i,>57
Nc1nc(-c2ccco2)c(-c2ccco2)s1,i,.
Cc1ccc(C)c(N(CC(=O)NCc2ccc3c(c2)OCO3)C(=O)CCC(=O)Nc2ccccn2)c1,i,>57
O=C(CN1CCN(CC(=O)Nc2ccccn2)CC1)Nc1ccccn1,i,.
CCCC1(C(=O)OC)C=C2C(=C(C)C(=O)C2C)CN1 (centres undefined),i,.
COC(=O)C1=C(C)OC(N)=C(C#N)C1c1cc(OC)c(OCC(N)=O)cc1Cl (centres undefined),i,>57
CCN(CC)S(=O)(=O)c1ccc(NS(=O)(=O)c2cccc(C)c2)cc1,i,i
CCCc1nc2ccccc2n2cc3c(=O)n(C)c(=O)n(C)c3c12,i,>57
Cc1cccn2c(=O)c3cc(C#N)c(=O)n(CCCN4CCOCC4)c3nc12,i,>57
CCOC(=O)c1[nH]c(C)c(/C(O)=C2\C(=O)C(=O)N(CCN(C)C)C2c2ccc(C)o2)c1C (centres undefined),i,>57
CC(C)C[C@H](NC(=O)NCc1ccccc1Cl)C(=O)O,i,>57
OC[C@@H]1O[C@@H](n2cnc3c(NC4CCCCC4)ncnc32)[C@@H](O)[C@H]1O,i,.
CSCC[C@H](NC(=O)NCc1ccccc1F)C(=O)O,i,>57
Fc1ccc(CSc2ncnc3nc[nH]c23)cc1,i,.
COc1cc(S(=O)(=O)N(Cc2ccc(C)cc2)C2CCCCC2)ccc1-n1cnnn1,i,>57
CCOC(=O)C1=C(N)Oc2cc(C)oc(=O)c2C1c1cccnc1 (centres undefined),i,>57

# The list goes on; the last three above are carried over.
SMILES,YjeE inh,PK Bst
Fc1ccc(CSc2ncnc3nc[nH]c23)cc1,i,.
COc1cc(S(=O)(=O)N(Cc2ccc(C)cc2)C2CCCCC2)ccc1-n1cnnn1,i,>57
CCOC(=O)C1=C(N)Oc2cc(C)oc(=O)c2C1c1cccnc1 (centres undefined),i,>57
CC(C)c1cc(NCCCN2CCOCC2)n2c(nc3ccccc32)c1C#N,.,>26
CCOc1ccc(CCNC(=O)CN2CCN(Cc3ccccc3C)C2=O)cc1OCC,i,>57
CCOCCCNC(=O)c1ccccc1SC,i,>57
COc1ccc(NC(=O)C(CC(C)C)NC(=O)c2ccccc2C)cn1 (centres undefined),i,>57
Cn1c(N2CCC(C(N)=O)CC2)nc2c1c(=O)n(Cc1ccc(Cl)cc1)c(=O)n2C,i,>57
COc1ccc2[nH]c(=O)c(CN(CCO)C(=O)c3ccccc3F)cc2c1,i,>57
Cc1ccc(OCCNC(=O)c2ccccc2N)cc1,i,.
CCCCC(NC(C)=O)c1nc2ccccc2[nH]1 (centres undefined),i,.
CCN1CCN(C(c2cccs2)C(C)NC(=O)CC(C)C)CC1 (centres undefined),i,>57
Cc1c(O)cccc1C(=O)N[C@@H](CSc1ccccc1)[C@H](O)CN1C[C@H]2CCCC[C@H]2C[C@H]1C(=O)NC(C)(C)C,i,.
O=C(Nc1ccc(F)cc1F)c1cc2n(n1)C(C(F)(F)F)C1CCCCC1N2 (centres undefined),i,>57
Cc1sc(C(=O)NCc2cccnc2)c2nc(C)n(CC(=O)NCc3cccnc3)c(=O)c12,i,>57
COC(=O)CCCCCc1ccc(C(C)=O)s1,i,.
COc1ccc(-c2cn[nH]c2N)c(OC)c1,i,.
CCCCOc1ccc(CSC(CC(=O)O)C(=O)O)cc1 (centres undefined),.,i
CCCCOc1ccc(S(=O)(=O)N2CCCCCC2)cc1,i,.
COCCN(CCOC)Cc1c(O)ccc2c3c(c(=O)oc12)CCC3,i,.
CCOC(=O)c1[nH]c(C)c(/C(O)=C2\C(=O)C(=O)N(CCCn3ccnc3)C2c2ccncc2)c1C (centres undefined),i,>57
CCOC(=O)c1sc(=S)n(-c2ccccc2OC)c1N,i,>57
O=C(O)C1CC(=O)N(c2ccc(OCc3c(F)cccc3Cl)cc2)C1 (centres undefined),i,>57
Cc1nnc(NC(=O)c2ccccc2Br)s1,i,>57
Cc1nc2ccccn2c1/C(O)=C1\C(=O)C(=O)N(CCCn2ccnc2)C1c1ccncc1 (centres undefined),i,>57
CC(C)(C)n1nnnc1C(c1cccs1)N1CCCc2ccccc21 (centres undefined),i,>57
FC(F)(F)c1ccccc1-c1nccc(N2CCNCC2)n1,i,.
CC(C)NC(=O)c1nc2ccccc2s1,i,>57

# This is a subset. The share of hits here may be higher or lower than overall.
